High-throughput results from PubChem BioAssay.
SARS PLP yeast: SARS-CoV PLP inhibition in yeast; Potency, µM (doses to about 32.9 µM), without a hit: at the top dose activity, positive = growth rescue; AID 485353; 330,000 tested, 0.19% active; S. cerevisiae expressing SARS-CoV PLpro, growth rescue; control for the full effect not named in the record; active means well fitted rising curve with a large enough effect; inconclusive means small, poorly fitted or top-dose-only effect; inactive means no such curve, though single readings can be large or run the other way; note: 0% is about no effect; nearly all actives have a fitted effect of over 55% in size; growth read by luminescence after 48 h
LASV entry inh: Lassa virus entry inhibition. Potency, µM (highest dose often 37.9 µM), without a hit: top-dose activity change, negative = inhibition, hits mostly inhibitors. 300,000 tested, 1.2% active. Lassa virus pseudotype entry inhibition, cell reporter; control for the full effect not named in the record; active means well fitted inhibition curve with a large enough effect; inconclusive means small, poorly fitted or top-dose-only effect, or effect the other way; inactive means flat fitted curve, though single readings scatter; tested in HEK293 cells; note: % is set by controls: 0 for no effect and ±100 for the full control effect; nearly all actives have a fitted effect of over 50% in size; luciferase read-out
Cruzain inh Det: inhibitors of Trypanosoma cruzi cruzain with detergent | purified cruzain, Z-FR-AMC fluorescence, 0.01% Triton | Potency, µM, without a hit: max response, negative = inhibition, actives largely listed as inhibitors | 200,000 tested, 0.43% active;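 note: plate controls were neutral wells for no effect and buffer without enzyme for full effect; nearly all actives have a fitted effect of over 40% in size; top concentration of the series not given in the record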
Target sequence (P25779 123-467 limits assumed): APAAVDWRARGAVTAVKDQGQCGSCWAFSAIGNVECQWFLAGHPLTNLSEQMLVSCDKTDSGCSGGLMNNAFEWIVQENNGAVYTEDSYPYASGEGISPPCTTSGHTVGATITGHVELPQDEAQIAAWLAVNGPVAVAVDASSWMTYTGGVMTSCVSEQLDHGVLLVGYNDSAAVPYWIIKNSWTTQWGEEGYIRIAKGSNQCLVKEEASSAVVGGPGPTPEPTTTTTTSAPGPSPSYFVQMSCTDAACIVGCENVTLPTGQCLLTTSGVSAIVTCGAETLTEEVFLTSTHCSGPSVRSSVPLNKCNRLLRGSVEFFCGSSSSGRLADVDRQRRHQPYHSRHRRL
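Z-FR-AMC hydrolysis (2 uM substrate) by cruzain (1.5 nM) monitored kinetically at ex 360/em 450 nm after 15 min room-temperature compound exposure; 0.01% Triton X-100, pH 5.5, 5 mM DTT.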
Cruzain noTriton: blocks cruzain activity in detergent-free assay. 200,000 tested, 2.3% active. purified cruzain, Z-FR-AMC fluorescence, no detergent. Potency, µM, inactives show max response, negative = inhibition, most hits filed as inhibitors. AID 1476. P25779;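 note: plate controls were enzyme without inhibitor for no effect and buffer without enzyme for full effect; nearly all actives have a fitted effect of over 40% in size; top concentration of the series not given in the record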
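Detergent-free condition (0.00005% Triton X-100) in acetate buffer pH 5.5 with DTT. 1.5 nM enzyme and compound were pre-mixed 15 min, then 2 uM Z-FR-AMC substrate added; reaction progress from fluorescence change between first and third reads (60 s).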
NS1 function inh: inhibitors of influenza NS1 protein function | S. cerevisiae slowed by influenza A NS1, growth recovery by OD600 | Potency, µM (series often up to 46.1 µM), inactives show top-dose activity, positive = more growth | 270,000 tested, 0.4% active; active means well fitted rising curve with a large enough effect; inconclusive means small, poorly fitted or top-dose-only effect; inactive means no such curve, though single readings can be large or run the other way; note: nearly all actives have a fitted effect of over 50% in size
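A cell-based growth assay was used: compounds that relieve NS1-induced slow growth of budding yeast raise OD600. Assay medium was yeast nitrogen base with ammonium sulphate and -URA supplement, pH 6.0, with 2% galactose.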
StopGo reporter: FMDV 2A StopGo reporter, luciferase signal; human cells with a luciferase reporter of 2A StopGo recoding; control for the full effect not named in the record; Potency, µM (series often up to 57.9 µM), inactives show top-dose signal change, negative = less light; 410,000 tested, 1.2% active; AID 1159524; active = well fitted falling curve with a large enough effect; inconclusive = small, poorly fitted or top-dose-only effect; inactive = no such curve, though single readings can be large or run the other way; tested in HEK293T cells; note: % is set by controls: 0 for no effect and ±100 for the full control effect; nearly all actives have a fitted effect of over 45% in size; luciferase light after 4 h
RE007 growth inh: less growth of the S. pombe RE007 Vpr strain; S. pombe RE007 Vpr strain, BacTiter-Glo ATP luminescence, 24 h; control for the full effect not named in the record; Potency, µM (highest dose often 92.2 µM), for the others: at the top dose activity change, negative = less growth; 360,000 tested, 0.21% active; AID 651644; active = well fitted falling curve with a large enough effect; inconclusive = small, poorly fitted or top-dose-only effect; inactive = no such curve, though single readings can be large or run the other way;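 note: % is set by controls: 0 for no effect and ±100 for the full control effect; nearly all actives have a fitted effect of over 50% in size; the assay follows cell death caused by Vpr and the record does not say whether a fall means rescue or toxicity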
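Fission yeast strain RE007, carrying one chromosomally integrated HIV-1 vpr copy, was seeded at OD 0.01 in PMG+AL medium with 23 nL pinned compound. After 24 h at 30 °C and 99% humidity, viability was read by BacTiter-Glo luminescence.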
Marburg entry inh: blocks Marburg virus binding to or entry into cells. Marburg virus pseudotyped entry inhibition, cell reporter; control for the full effect not named in the record; about a third of the inactives were read at about 46 µM. Potency, µM (titrated, usually from 37.8 µM), for inactives: top-dose activity change, negative = inhibition, most hits filed as inhibitors. 300,000 tested, 1.8% active. AID 540276; active = well fitted inhibition curve with a large enough effect; inconclusive = small, poorly fitted or top-dose-only effect, or effect the other way; inactive = flat fitted curve, though single readings scatter; tested in HEK293 cells; about a fifth of its hits are not listed in these tables; note: % is set by controls: 0 for no effect and ±100 for the full control effect; luciferase read-out
Numbers without * were called inactive; u = inconclusive; x = not tested or not shown; & = joins results of further samples; [ ] = remark or other dose. Unless noted, calls come from the whole dose curve; as a rule, active = well fitted curve in the direction sought with a large enough effect; inconclusive = small, poorly fitted or top-dose-only effect, or another doubt; inactive = no such curve, though single readings can be large; an effect the other way counts as inactive or inconclusive. Potency is the fitted concentration of half-maximal effect.

Structure | SARS PLP yeast | LASV entry inh | Cruzain inh Det | Cruzain noTriton | NS1 function inh | StopGo reporter | RE007 growth inh | Marburg entry inh
O=C1C=C(Nc2cccc(O)c2)CC(c2ccco2)C1 (stereo not given) | -4.8% | 2.9% | -6.2% | -5.0% | 11.5% | 10.4% | 13.4% | -3.3%
O=C(CSc1nnc(Cc2ccccc2)o1)Nc1ccccc1 | 0.0% | 7.9% | x | x | -10.9% | 0.8% | 0.9% | 0.1%
CCCc1cc(C(=O)Nc2sc3c(c2C(=O)OCC)CCCC3)no1 | 1.6% | x | 0.4% | u | 13.0% | -23.8% | 2.2% | x
CCc1sc(C(=O)Nc2ccc3c(c2)OCO3)cc1C | -8.5% | u | x | x | x | 52.1%[activator] | -16.5% | -28.6%
COc1ccc(OC)c(NC(=O)CSc2nnc(-c3ccco3)o2)c1 | -7.8% | 14.5% | x | x | -19.0% | -23.0% | -3.4% | 10.7%
O=C(N/N=C1\CC(c2ccccc2)Oc2ccccc21)c1ccc(O)cc1 (stereo not given) | -2.0% | u | x | x | -27.5% | 0.7% | 4.3% | -1.2%[46.1 µM]
Cn1c2ccccc2c2cc(C(=O)NNS(=O)(=O)c3ccc(F)cc3)sc21 | -2.1% | u | -21.2% | u | 8.8% | -12.9% | 4.1% | -42.4%
CCC(C)[C@H](N)c1cn([C@@H](Cc2ccc(O)cc2)C(=O)N2CCNCC2)nn1 (stereo not given in full) | 1.8% | x | x | x | -0.7% | -12.7% | 33.8% | x
Cc1ccc2c(=O)cc(C(=O)Nc3c(C(=O)c4ccccc4)oc4ccccc34)oc2c1C | x | u | -0.7% | -6.9% | x | -7.2% | x | u
CCN(CC)CCCC(C)n1c2nc(=O)[nH]c(=O)c-2nc2cc(Cl)ccc21 (stereo not given) | x | u | x | x | x | 11.2µM* | -8.6% | 5.62µM*
Cc1nnc(NC2=NCCC2)s1 | 0.0% | 0.8% | 1.3% | -7.5% | 6.4% | 8.5% | 6.3% | -6.8%[46.1 µM]
COc1cc(CN2CCCC(C(=O)c3ccc4c5c(cccc35)CC4)C2)cc(OC)c1O (stereo not given) | -0.4% | x | x | x | 2.1% | -16.9% | -12.2% | x
COc1ccc(-n2ncc3c2CC(C)(C)CC3NC(=O)CCN2CCCCC2=O)cc1 (stereo not given) | 16.3% | x | x | x | 1.9% | -13.2% | -7.3% | x
CN(C)S(=O)(=O)c1ccc(N2CCCC2)c(C(=O)N2CCN(S(=O)(=O)c3ccc(F)cc3)CC2)c1 | 2.4% | -0.7% | x | x | x | -11.7% | 0.8% | u
COc1ccccc1-c1nc2ccccc2nc1-c1ccccc1OC | -15.7% | -2.3% | u | -3.5% | -2.1% | -11.7% | -0.2% | -22.7%
COc1cc2c(cc1OC)C(c1cccc(Br)c1)CC(=O)N2 (stereo not given) | 9.1% | x | x | x | 0.7% | -16.0% | 1.3% | x
CC(=O)c1ccc(N2CCN(c3ccccc3O)CC2)c([N+](=O)[O-])c1 | -7.1% | 10.8% | x | x | -11.4% | u | -28.2% | u
CCn1cc(C(C)NC(=O)Nc2ccc3c(c2)OCO3)c(C)n1 (stereo not given) | -1.1% | 3.9% | x | x | 2.2% | 26.9% | -0.7% | 1.5%[46.1 µM]
Cc1cccc(N2CCN(C(=O)CSCc3ccc(F)cc3)CC2)c1C | x | 4.3%[46.1 µM] | -0.7% | 8.4% | x | -2.9% | x | x
CN1CCN(C(=O)c2ccc3c(c2)N(Cc2ccc(Cl)cc2)C(=O)c2ccccc2S3=O)CC1 (stereo not given) | 8.6% | 5.6% | 0.7% | -0.2% | -9.1% | 0.0% | -20.3% | -20.5%&-20.5%
CCOC(=O)C1(CCOC)CCN(Cc2nc(-c3cccs3)oc2C)CC1 | -1.1% | u | x | x | -1.3% | -13.1% | -11.3% | -29.1%[46.1 µM]
CCC(=O)c1ccc(O)c(CC=C(C)C)c1 | -9.4% | 8.4% | -4.2% | 11.4% | -62.5% | u | -13.1% | -1.0%[46.1 µM]
CC(=O)Oc1ccc(/C=C(\NC(=O)c2ccco2)C(=O)NCc2ccco2)cc1 | -4.0% | 22.1% | x | x | 4.6% | 11.5% | 2.6% | 1.0%[46.1 µM]
CCOc1ccccc1C1C(C#N)=C(N)Oc2n[nH]c(CC)c21 (stereo not given) | -10.7% | -16.3% | -2.5% | 4.7% | -7.3% | x | -1.9% | -14.5%
O=C(c1ccoc1)N1CCC2(CC1)Oc1ccc(F)cc1C(=O)C21CC(c2ccc(Cl)cc2)=NO1 (stereo not given) | 1.0% | x | x | x | 6.8% | 0.0% | -9.7% | x
COc1ccc(C2=NN(C(=O)c3ccccc3)C(c3ccccc3)C2)c(O)c1 (stereo not given) | 5.6% | -28.3%[46.1 µM] | x | x | 5.4% | -4.4% | -0.4% | u
O=C(O)CC/C(=N/NC(=O)CNC(=O)Cc1ccc(Cl)cc1)c1ccccc1 | 8.8% | x | x | x | 1.9% | -6.5% | -0.1% | x
CN(CCC#N)C(=O)c1cc2c(Cl)nc3ccccc3c2s1 | -0.1% | 10.1% | x | x | -2.0% | -7.3% | 0.8% | u
O=C(CSc1nc2ccccc2s1)NCc1ccc2c(c1)OCO2 | -7.8% | 1.4% | -2.4% | -2.3% | -15.9% | 5.7% | 3.6% | -0.3%
Cc1ccsc1C=Nc1ccc(O)cc1 | -6.6% | u | -10.6% | -13.3% | 26.8% | -21.4% | -9.7% | u

Reprinted from the part before: 2 compounds, then new ones.
Structure | SARS PLP yeast | LASV entry inh | Cruzain inh Det | Cruzain noTriton | NS1 function inh | StopGo reporter | RE007 growth inh | Marburg entry inh
O=C(CSc1nc2ccccc2s1)NCc1ccc2c(c1)OCO2 | -7.8% | 1.4% | -2.4% | -2.3% | -15.9% | 5.7% | 3.6% | -0.3%
Cc1ccsc1C=Nc1ccc(O)cc1 | -6.6% | u | -10.6% | -13.3% | 26.8% | -21.4% | -9.7% | u
CC(=O)c1cc2c(cc1NC(=O)C1CCC1)OCO2 | -0.5% | -4.1% | x | x | -3.8% | -11.0% | -8.6% | -23.7%[46.1 µM]
COc1cccc(Nc2ncc(C#N)c(N)n2)c1 | -0.9% | -9.9%[46.1 µM] | x | x | -5.4% | 27.0% | -15.8% | u
COc1ccc(NC(=S)NC(=O)c2ccc(Br)o2)cc1 | -1.2% | x | x | x | 3.0% | 120.0%[activator] | 5.3% | x
CC(=O)c1ccc(N2CCN(C(=O)Nc3ccc(C(C)C)cc3)CC2)cc1 | -9.2% | u | -12.1% | u | x | 14.1µM* | 8.3% | 3.16µM*
O=C(c1ccc(C#CC2(O)CCCCC2)cc1)N1CCN(Cc2ccccc2)CC1 | 8.0% | -22.1% | 2.1% | 2.6% | -20.3% | u | 4.3% | u
O=c1c2ccccc2cnn1-c1nc2ccccc2[nH]1 | -28.9% | 0.326µM* | x | x | x | 1.78µM* | u | 0.291µM*
Cc1cc(NC(=O)C2CCCN2C(=O)Nc2c(C)cccc2C)ccc1-n1cnnn1 (stereo not given) | 4.7% | 6.8% | 1.9% | -2.0% | 3.8% | -24.8% | 27.0% | -8.9%
Cc1cc(NC(=O)CSCc2ccccc2C)no1 | 3.1% | -14.0%[46.1 µM] | x | x | x | 3.2% | -5.1% | -0.3%[46.1 µM]
Cc1c(NC(=O)c2ccccc2NS(=O)(=O)c2ccc(Br)cc2)c(=O)n(-c2ccccc2)n1C | -5.6% | 0.5% | 5.5% | -2.3% | 11.5% | 6.0% | -3.2% | 2.6%
Cc1oc2c(c(C)cc3oc(=O)c(CC(=O)N[C@@H](C)C(=O)O)c(C)c32)c1C | -4.4% | x | x | x | 3.8% | -24.9% | -17.0% | x
O=C(Cn1c(CO)nc2ccccc21)NCCc1ccc(F)cc1 | 3.5% | 8.1%[46.1 µM] | x | x | x | -6.8% | 7.6% | -14.8%[46.1 µM]
CCCNc1nc2ccccc2n2c(C)nnc12 | 0.0% | -1.5% | x | x | 6.1% | 12.5% | 1.7% | -9.0%
C=CCNC(=O)c1sc(-c2ccccc2)nc1C | -0.6% | 12.0% | x | x | -0.9% | 44.4%[activator] | 0.9% | 15.4%[46.1 µM]
CCCC1CCC(=C(C#N)C(N)=O)CC1 (stereo not given) | -5.5% | 8.0% | -1.9% | 1.6% | 9.6% | -17.2% | 2.9% | -1.2%
Cc1ccc(NCc2cccnc2)c(Br)c1 | -24.8% | -4.6% | -1.3% | 0.1% | -13.8% | 16.8% | 6.7% | -0.8%&-0.8%[46.1 µM]
OC(CN1CCN(c2ccccn2)CC1)Cn1c2ccccc2c2ccccc21 (stereo not given) | -4.7% | x | -2.1% | 12.9% | -39.7% | -22.6% | -9.0% | -0.2%
Cc1c2cnn(CC(=O)N3CCC4(CC3)OCCO4)c(=O)c2c(C)n1Cc1ccccc1F | -1.2% | 7.8% | 3.0% | -3.1% | 16.8% | 0.0% | 3.5% | 2.6%
CCOC(=O)c1cc2c(C)n(-c3ccc(C)cc3)c(C)c2ccc1=O | -18.8% | u | -10.8% | 2.2% | -83.5% | -37.2% | -5.4% | 25.9µM*

Compound profiles, as listed above:
COc1cccc(Nc2ncc(C#N)c(N)n2)c1 is entered as SARS PLP yeast = -0.9%; LASV entry inh = -9.9%[46.1 µM]; Cruzain inh Det = x; Cruzain noTriton = x; NS1 function inh = -5.4%; StopGo reporter = 27.0%; RE007 growth inh = -15.8%; Marburg entry inh = u
OC(CN1CCN(c2ccccn2)CC1)Cn1c2ccccc2c2ccccc21 (stereo not given) is entered as SARS PLP yeast = -4.7%; LASV entry inh = x; Cruzain inh Det = -2.1%; Cruzain noTriton = 12.9%; NS1 function inh = -39.7%; StopGo reporter = -22.6%; RE007 growth inh = -9.0%; Marburg entry inh = -0.2%
CC(=O)c1ccc(N2CCN(C(=O)Nc3ccc(C(C)C)cc3)CC2)cc1 is entered as SARS PLP yeast = -9.2%; LASV entry inh = u; Cruzain inh Det = -12.1%; Cruzain noTriton = u; NS1 function inh = x; StopGo reporter = 14.1µM*; RE007 growth inh = 8.3%; Marburg entry inh = 3.16µM*
